# Screens (PubChem)
# VACV mCherry inh: inhibitors of vaccinia virus infection (mCherry reporter signal); Vaccinia virus mCherry reporter infection, fluorescence; about a quarter of the inactives have no number; Potency, µM (series often up to 36.5 µM), inactives show top-dose activity change, negative = inhibition, hits mostly inhibitors; 310,000 compounds, 0.63% hits; active = well fitted inhibition curve with a large enough effect; inconclusive = small, poorly fitted or top-dose-only effect; inactive = no such curve, though single readings can be large or run the other way; tested in A549 cells; further: nearly all actives have a fitted effect of over 35% in size; inactives centre near -10
# Vaccinia Venus: vaccinia inhibition (Venus reporter); Vaccinia virus Venus reporter expression, fluorescence; Potency, µM (highest dose often 36.5 µM), without a hit: at the highest dose activity change, negative = inhibition, most hits filed as inhibitors; 330,000 compounds, 0.46% hits; AID 720580; active means well fitted inhibition curve with a large enough effect; inconclusive means small, poorly fitted or top-dose-only effect; inactive means no such curve, though single readings can be large or run the other way; tested in A549 cells; further: nearly all actives have a fitted effect of over 30% in size; inactives centre near -10
# * marks the source's active call; other numbers are inactive results; i = inactive; ? = inconclusive; / = not tested or not shown; & = joins results of further samples; [ ] = remark or other dose. On the % scale 0 is the no-effect control and ±100 the full control effect; potency means the concentration at half of the fitted maximal effect. This is a random part of the collection. About 0.88% of those tested had a hit in this group.
Molecule | VACV mCherry inh | Vaccinia Venus
O=C(Nc1ccccc1C(F)(F)F)c1ccc2oc(=O)c(S(=O)(=O)c3ccc(F)cc3)cc2c1 | -24.5% | -16.6%
C=CCNC(=O)c1onc(CSc2ccc(Cl)cc2)c1C(=O)O | -8.3% | -12.8%
CN(Cc1ccccc1F)C(=O)CN1C(=O)NC2(CCc3ccccc32)C1=O (stereo not drawn) | i | -13.5%
COCOc1cccc(CN2CCC(C)(Oc3cccc(OC)c3)C2)c1 (stereo not drawn) | -10.3% | 9.4%
CC(=NCc1cccnc1)c1c(O)n(-c2ccc(Cl)cc2)c(=O)[nH]c1=O | i | -9.2%
CCOC(=O)C1C(=O)CC(C)(O)C(C(=O)OCC)C1c1ccc(SC)cc1 (stereo not drawn) | i | -7.9%
CC(C)n1c(=O)c2ccccc2n1Cc1cn(Cc2cccs2)nn1 | 23.7% | -6.2%
COCCCNC(=S)NC1CC2CCCC(C1)N2Cc1cccs1 (stereo not drawn) | -2.6% | -16.1%
COc1ccc(C2NC(=O)C(C#N)=C(S)N2c2ccccc2)cc1OC (stereo not drawn) | i | -7.2%
COc1ccc(OCC(=O)Nc2cccc(-c3nc4ccccc4s3)c2C)cc1 | -7.9% | -7.6%
CCOC(=O)c1cc(C#N)c(Nc2ccc(C)cc2)nc1C(F)(F)F | i | -8.3%
O=C1C(Cl)=C(N2CCN(Cc3ccccc3)CC2)C(=O)N1c1ccccc1 | i[1.46 µM] | -10.6%
CC(=O)Nc1nc2c(C)cc(NC(=O)C3CCCCC3)cc2s1 | -10.1% | -6.8%
CCOC(=O)COn1c(=O)c(-c2ccccc2)[n+]([O-])c2ccccc21 | i | 0.3%
COc1cc2c(cc1OC)CN(C(C)C(=O)Nc1cccc(S(=O)(=O)N3CCOCC3)c1)CC2 (stereo not drawn) | -3.8% | -21.3%
Cc1cccc2c(C(=O)N3CCN(c4ccccc4)CC3)cc(-c3ccncc3)nc12 | i | -17.5%
COc1ccc(C(=O)N2CCC2(C)C(=O)O)cc1C(F)(F)F (stereo not drawn) | 12.4% | 6.6%
CCCCN1C(=O)C(CC(=O)NC2CC2)CC(C(=O)N2CCOCC2)=C1C (stereo not drawn) | i | -14.1%
CC1C(=O)Nc2ccc(S(=O)(=O)N3CCN(c4ccccc4F)CC3)cc2NC1=O (stereo not drawn) | 7.2% | -18.0%
Cc1cccc(C(=O)NCC(=O)OCC(=O)c2ccc(Br)s2)c1 | -12.1% | -4.1%
Cc1cc(C)cc(Nc2c3c(nc4ncnn24)CCC3)c1 | ? | -22.6%
Cn1c2c(sc1=O)CCC2 | -10.9% | 10.2%
COc1ccc(CNC(=O)c2ccc(NS(=O)(=O)c3c(C)noc3C)cc2)cc1 | -13.6% | 0.8%
CC(C)(C)C(=O)Nc1nc(C2CCCN2S(=O)(=O)c2ccc(Cl)cc2)cs1 (stereo not drawn) | -20.7% | -13.9%
O=S(=O)(Nc1ccc(Cl)cc1)c1ccc2c(c1)CCO2 | -8.2% | ?
Cn1cc(-c2ccccc2C(N)=O)c(=O)c2ccccc21 | -2.6% | 1.2%
CC(OC(=O)c1ccc(C(C)(C)C)cc1)C(=O)NC1CCCCC1C (stereo not drawn) | i | -12.0%
Cc1c(NS(=O)(=O)c2cccs2)c(=O)n(-c2ccccc2)n1C | / | -7.5%
COc1ccc(CCn2c(N)c(C(=O)NCc3ccco3)c3nc4ccccc4nc32)cc1OC | -23.1% | -11.0%
CCC(=O)N(c1ccc(F)cc1)C1C=CS(=O)(=O)C1 (stereo not drawn) | -18.3% | -6.7%
O=C(NCC(=O)N1CCN(c2ncccn2)CC1)c1ccc(F)cc1 | -4.2% | -10.5%
Cc1ccc2c(c1)c(-c1ccccc1)nc1nnnn12 | -8.8% | 0.0%
COc1c(Cl)cc(Cl)cc1CNc1ccc(S(N)(=O)=O)cc1 | ? | -7.3%
CC(=O)Nc1ccc(-c2csc(NCCc3ccccc3)n2)cc1 | ? | -19.9%
COc1ccc(C(=O)O)cc1S(=O)(=O)NCc1ccccn1 | -12.0% | -5.8%
CCOc1ccccc1NC(=O)Cc1csc(COc2cccc(C)c2)n1 | -10.6% | -13.9%
COc1cccc(C(=O)Nc2ccc(N3CCN(Cc4ccccc4)CC3)cc2)c1 | -28.4% | -18.6%
COC(=O)COc1ccc(-c2ccc(F)cc2)cc1C=O | 2.9% | 0.1%
CN(C)C(=S)SSC(=S)N(C)C | -25.9%&-18.8% | -11.0%&-16.8%
COc1ccc(CC(=O)NNc2ncnc3c2cnn3-c2ccccc2)cc1 | -14.6% | -8.0%

# Rewritten with two lines to a compound: entries from further up
# Every second line gives: VACV mCherry inh	Vaccinia Venus
COc1cccc(C(=O)Nc2ccc(N3CCN(Cc4ccccc4)CC3)cc2)c1
 : -28.4%	-18.6%
COC(=O)COc1ccc(-c2ccc(F)cc2)cc1C=O
 : 2.9%	0.1%

# (cont.)
Molecule | VACV mCherry inh | Vaccinia Venus
CCN(CC)C(=O)CC(c1ccc2c(c1)OCO2)c1c(O)cc(OC)cc1OC (stereo not drawn) | i | -2.1%
CCc1ccccc1NC(=O)[C@@H]1CCC(=O)N1C1OC(=O)c2c1ccc(OC)c2OC (stereo partly drawn) | -1.3% | 9.1%
Cc1ccc(C)c(N2CCN(c3ncnc4c3cnn4-c3ccccc3)CC2)c1 | 3.4% | -13.1%
CCCCN(CCCC)CCNC(=O)c1cn(CC)c2ccc(S(=O)(=O)N3CCc4ccccc4C3)cc2c1=O | ? | -23.5%
S=c1[nH]nc2n1CCCN2 | -11.3% | -1.4%
Cc1cc(=O)oc(C)c1C(=O)NCCc1ccccc1 | / | 5.7%
COc1ccc(NC(=O)C[C@H]2C(=O)N(c3ccc(Br)cc3)C[C@@H]2c2ccc(OC)cc2)cc1 | -27.1% | -24.3%
CN(C)CCCNC(=O)c1ccc(Cl)c(S(=O)(=O)N2CCCCCC2)c1 | -10.8% | -16.6%
O=C(CCCN1C(=O)/C(=C\c2ccccc2)SC1=S)Nc1cccc(C(=O)O)c1 | i | 1.9%
O=S1(=O)CC(N2CCCCC2)CN1Cc1cn(Cc2cccc(C(F)(F)F)c2)nn1 (stereo not drawn) | i | -12.8%
CC(=O)N1CCN(CC(=O)Nc2ccc([N+](=O)[O-])cc2Br)CC1 | -9.3% | -2.8%
CCc1cc2c(SCC(=O)Nc3ccc(Cl)cn3)ncnc2s1 | -12.9% | -14.5%
CC1(c2ccccc2)NC(=O)N(CC(=O)NCc2ccc3c(c2)OCO3)C1=O (stereo not drawn) | i | -7.4%
COc1ccc(-c2cc(C(=O)Nc3c(C)n(C)n(-c4ccccc4)c3=O)c3ccccc3n2)c(OC)c1 | ? | -29.1%
COc1ccc(OC)c(-c2csc(N(C)C(=O)Cc3ccccc3)n2)c1 | -12.1% | -11.9%
CCN(CC)C(=O)c1cnn(-c2ccccc2)c1NC(=O)c1cccc(F)c1 | / | -20.5%
CCN1CCN(C(=O)Cn2c(-c3cccs3)cc3ccccc32)CC1 | -12.1% | -10.1%
Cc1ccc(C)c(-n2c(-c3cccnc3)n[nH]c2=S)c1 | i | -5.3%
Cc1ccc(Cl)cc1NC(=O)Cn1c(=O)oc2cc(S(=O)(=O)N3CCCC3)ccc21 | -18.5% | -17.9%
CCOCCCNC(=O)C1CCN(S(=O)(=O)CC)CC1 | i | 0.5%
CC(Sc1nc2cc(Cl)ccc2s1)C(=O)Nc1cccc(S(=O)(=O)N2CCOCC2)c1 (stereo not drawn) | -13.1% | -19.8%
CC(NC(=S)NCCCN1CCOCC1)C1CC2CCC1C2 (stereo not drawn) | ? | 0.9%
CO/N=C(\C(=O)N[C@@H]1C(=O)N2C(C(=O)O)=C(COC(C)=O)CS[C@H]12)c1csc(N)n1 (stereo in doubt) | -6.8%&-10.3% | -10.7%&-19.0%&-10.9%
O=C(CCN1C(=O)/C(=C/c2ccccc2Cl)SC1=S)NNC(=O)c1cccnc1 | -1.6% | -20.8%
Cc1nn(C)c(C)c1/C=C1/SC(=S)NC1=O | -2.1% | -4.9%
OC(COc1ccc2c(c1)OCO2)CN1CCCC1 (stereo not drawn) | -0.3% | 7.7%
COc1ccc(N2CCN(C(=O)Cn3cnc4sc(C)c(S(=O)(=O)N5CCCCC5)c4c3=O)CC2)cc1 | -8.3% | -3.4%
O=C(/C=C/c1ccco1)Nc1cccc(-c2nc3ccccc3[nH]2)c1 | 23.3% | -18.1%
O=C(O)COc1ccccc1/C=N/NC(=O)c1cccc(S(=O)(=O)Nc2cccc(Cl)c2)c1 | -5.8% | -14.6%
Cc1ccc(Cl)cc1N1CCN(C(=O)C2CCN(S(C)(=O)=O)CC2)CC1 | i | -6.8%
COc1cccc(CNC(=O)[C@H](C)NC(=O)C2CCN(S(=O)(=O)c3ccccc3)CC2)c1 | i[7.34 µM] | -9.5%[7.34 µM]
O=S(=O)(c1ccc(Cl)nc1)N(Cc1ccccc1)Cc1ccccc1 | -4.5% | 2.3%
O=C(Nc1ccccn1)c1ccc(Br)c(S(=O)(=O)N2CCCCC2)c1 | -12.3% | -0.6%
CCOc1ccc(CCNC(=O)c2cc(=O)[nH]c3ccc(S(=O)(=O)N(CC)CC)cc23)cc1OCC | -1.2% | -4.5%
CC(=O)Nc1cc2c(=O)n(Cc3ccccc3)c(C)nc2cc1N1CCOCC1 | -13.4% | -2.0%
CCN(CC(=O)Nc1c(F)cccc1F)C(=O)CCCNC(=O)c1ccc(Cl)cc1 | i | -14.7%
Cc1cccc(C)c1NC(=O)CS(=O)CC(=O)NCCCc1ccccc1 (stereo not drawn) | -0.5% | 4.2%
CCOc1ccc(CCNC(=O)CSCC(=O)Nc2cccc(C)c2)cc1OCC | -5.8% | -12.5%
CN(C)CCNC(=S)Nc1ccc(Br)cc1 | -14.3% | -3.4%
CCOc1ccc(NC(=O)c2ccc(CN3CCc4ccccc4C3)cc2)cc1 | i | -5.8%
CCOC(=O)C(CN1CCCC1)c1ccccc1 (stereo not drawn) | i | -8.9%
CCCOC(=O)c1c(NC(=O)C2c3ccccc3Oc3ccccc32)sc2c1CCC(C)C2 (stereo not drawn) | -2.0% | -1.6%
Cc1cc(-c2nnc(CSc3nnc(NC(=O)c4ccc(C(C)(C)C)cc4)s3)o2)ccc1[N+](=O)[O-] | -14.1% | -7.5%
COc1ccc([N+](=O)[O-])cc1NCc1c(F)cccc1F | -14.8% | -17.4%
NC(=O)c1ccccc1NC(=O)CSc1nc2ccccc2c(=O)[nH]1 | ? | ?
NC(=O)c1ccc(NC(=O)COC(=O)CCC2CCCC2)cc1 | -16.7% | -7.8%
Cc1ccccc1NS(=O)(=O)c1nnc(NC(=O)c2ccc(Br)cc2)s1 | -10.4% | -8.4%
O=C(O)CSCC(=O)N1CCCN(c2nc3ccc(Cl)cc3s2)CC1 | i | -6.8%
CCn1c(C)nc2c(C)[n+](CC(=O)c3ccc(Br)cc3)ccc21 | -4.2% | -4.9%
CC(C)C(=O)Nc1oc(-c2ccccc2)cc1C#N | -16.7% | -18.2%
CCOC(=O)c1c(CN(CC)CC)n(-c2ccccc2)c2ccc(O)cc12 | ? | -6.4%
CCOC(=O)C1CCN(C(=O)c2ccc3c(c2)S(=O)(=O)c2ccccc2C3=O)CC1 | -19.0% | -13.9%
CCC(=O)Nc1ccc(/C(C)=N\NC(=O)c2ccc(OC)cc2)cc1 | i | -4.1%
Cc1ccc2cc(CCNC(=O)C(C)C)c(=O)[nH]c2c1 | i | -5.8%
CC1C(=O)N2CCCc3cc(NS(=O)(=O)c4ccc(F)cc4)cc1c32 (stereo not drawn) | -10.1% | -4.6%
Cc1ccccc1OCCC(=O)Nc1cc(S(=O)(=O)N2CCOCC2)ccc1OC(C)C | i | -13.6%
COc1ccc(CCNS(=O)(=O)c2ccc3c(c2)oc(=O)n3C)cc1OC | -2.7% | -23.4%
CCC(C)(C)n1nnnc1CN1CCC(O)(c2cccc(C(F)(F)F)c2)CC1 | / | -13.0%
COc1ccc(-c2cccc(-c3cc(=O)oc4cc(OC)cc(OC)c34)c2)cc1 | ? | ?
COC(=O)N/N=C/c1ccc(-c2cc(Cl)cc(Cl)c2)o1 | -7.5% | -20.8%

# Additional entries follow:
Molecule | VACV mCherry inh | Vaccinia Venus
COc1ccc2nc(-c3ccccc3)cc(OC)c2c1 | ? | ?
Cc1cccc(C)c1NC(=O)C(c1ccccc1OC(F)(F)F)N1CCC(c2ccccc2)CC1 (stereo not drawn) | -4.1% | -7.7%
NC(=O)C1(N2CCCCC2)CCN(C(=S)Nc2ccc(F)cc2)CC1 | -14.7% | -10.0%
C[C@@H]1CC[C@@]2(O[C@@H](CCO)C[C@@H](O)[C@@H]2O)O1 | i | -9.9%
CC(C)CN(C(=O)CSc1nc2ccccc2[nH]1)C1CCS(=O)(=O)C1 (stereo not drawn) | -18.2% | -12.9%
CCOC(=O)C(=NC(C)(C)C)NNc1cc(Cl)ccc1Cl | -14.9% | -6.6%
CC(O)c1nc2ccccc2n1CCCOc1ccccc1 (stereo not drawn) | 5.9% | -8.8%
Cc1ccc(C(=O)Nc2cccc(C(=O)N/N=C/c3ccc(O)cc3)c2)cc1 | -2.1% | -10.3%
Cc1ccc(N2C(=O)CSC23C(=O)N(CC(=O)Nc2ccc(C(C)C)cc2)c2ccccc23)cc1C (stereo not drawn) | -13.6% | -24.3%
O=C(N/N=C/c1cccc([N+](=O)[O-])c1)C1CC1c1ccccc1 (stereo not drawn) | ? | -16.5%
Cc1ccc(-n2c(C)cc(=O)cc2C)c(C)c1 | -8.4% | 5.3%
